Compound activity from PubChem.
H5N1 CPE: antiviral screen in MDCK cells, H5N1 avian flu; cytopathic effect, luminescence, 72 h; hits give high values; no value below 0 was filed and about half of the inactive calls have no number; reference of the scale not given here; inhibition, % at 50 µM; hit rate 0.07% among 96,000; in the data active = inhibition above about 25%
* marks the source's active call; other numbers are inactive results; i = inactive.

SMILES | H5N1 CPE
CN1CCN(CC(=O)Nc2nc(-c3ccccc3)cs2)CC1 | i
CCCNS(=O)(=O)c1ccc(OCC(=O)Nc2ccccc2F)cc1 | 0.2
COc1ccc(OC)c(C(=O)c2coc3ccc(O)cc23)c1 | i
Cc1ncsc1C(=O)N1N=C2/C(=C/c3ccc(N4CCOCC4)cc3)CCCC2C1c1ccc(N2CCOCC2)cc1 (stereo unspecified) | i
CCOc1ccccc1Oc1coc2cc(OC(=O)c3ccco3)ccc2c1=O | 0.5
NC(=O)CC(NC(=S)NCc1ccccc1)C(=O)O (stereo unspecified) | i
COc1ccc(Cl)cc1NC(=O)NC(C)c1ccncc1 (stereo unspecified) | i
COc1ccc(CSCC(=O)N/N=C/c2ccccc2OCc2ccccc2)cc1 | 0.2
CCCc1nc(SCc2ccccn2)c2c(=O)n(C)c(=O)n(C)c2n1 | 5.3
Cc1cccc(CSc2nc3c(cc2C#N)CN(C)CC3)c1 | 0.3
CCS(=O)(=O)N1CCN(C(C)CCc2ccccc2)CC1 (stereo unspecified) | 1.7
COc1ccc(CN2C(=O)[C@@H]3C(c4ccccc4Cl)=NO[C@@H]3C2=O)cc1 | i
O=C(Nc1cccc(-c2cnc3ccccc3n2)c1)c1ccc(Cl)cc1 | i
Oc1ccccc1N1CCN(c2ncccn2)CC1 | i
Cc1nc(CSc2ccc(Cl)cc2)cc(N2CCOCC2)n1 | i
COC(=O)c1[nH]c(C)c(/C(O)=C2\C(=O)C(=O)N(CCN3CCOCC3)C2c2cccnc2)c1C (stereo unspecified) | 1.3
COc1ccc(-c2nn(-c3ccccc3)cc2/C=N/N2C(=O)CSC2=S)cc1 | i
COCC(=O)Nc1ccc(C(N)=O)cc1 | 0.5
CC(=O)c1c(C)nc(-c2ccc3c(c2)OCO3)n1O | i
COc1ccc(N(C(=O)Cn2cnc3ccccc32)C(C(=O)NC2CCCCC2)c2ccccc2)cc1 (stereo unspecified) | 2.5
Cc1cc(C)n(-c2nc(C)nc(N)n2)n1 | i
Cn1cc(C(=O)c2ccc(Cl)cc2Cl)cc1C(=O)N/N=C(\N)COc1ccc(Cl)cc1Cl | 1.8
CC1=C(C)CC(C(=O)Nc2cccc(Cl)c2)C(C(=O)O)C1 (stereo unspecified) | 0.0
COc1ccc(NC(=O)CN2CCN(S(=O)(=O)c3ccc(Cl)cc3)CC2)cc1Cl | 0.7
O=S(=O)(Nc1ccc(F)cc1)c1ccc(NC(=S)Nc2ccccc2)cc1 | i
CC1CN(c2nc3ccccc3nc2C(C#N)C(=O)OC2CCCCC2)CC(C)O1 (stereo unspecified) | i
O=C(/C=C/Nc1cccc(C(F)(F)F)c1)C(F)(F)F | 0.8
CCC(C)NS(=O)(=O)c1ccc(OCC(=O)NCC2CCCO2)cc1 (stereo unspecified) | i
COc1ccc(NC(=O)COC(=O)c2ccc(OCc3c(C)noc3C)cc2)cc1OC | 1.0
O=C(NC1CCCCC1)N(CCN1CCCC1)Cc1cc2cc3c(cc2[nH]c1=O)OCCO3 | 1.2

Ordered by molar mass (largest number first): 3 of the compounds above
SMILES | H5N1 CPE
O=C(/C=C/Nc1cccc(C(F)(F)F)c1)C(F)(F)F | 0.8
CC(=O)c1c(C)nc(-c2ccc3c(c2)OCO3)n1O | i
Cc1cc(C)n(-c2nc(C)nc(N)n2)n1 | i

(continued)
SMILES | H5N1 CPE
O=C(NCCCN1CCCC1=O)c1nnc(Cc2c(F)cccc2Cl)o1 | i
Cc1ccc(Cn2cnc3ccccc32)cc1 | i
Cc1csc(=Nc2ccc(S(=O)(=O)N3CCOCC3)cc2)n1Cc1ccco1 | i
COc1cc(C)nc(NS(=O)(=O)c2ccccc2)n1 | i
COCCCNC(=O)C1CCCN(C(=O)Nc2ccc(OC)cc2)C1 (stereo unspecified) | 0.7
C=CCSc1nnc(Cc2c(C)[nH]c3ccccc23)o1 | 0.9
CC(C)C(C(=O)Nc1cccnc1)N1C(=O)c2ccccc2C1=O (stereo unspecified) | i
CC(=O)c1cc(C#N)c(SCC(=O)OC(C)(C)C)nc1C | i
O=C(c1cccc(OC(F)F)c1)N1CCN(c2ncccn2)CC1 | 0.3
Cc1nn(-c2ccccc2)c2c1C(=O)NC(=O)C(C)(C)C2 | i
NC(=S)c1cc2ccc(O)cc2oc1=O | i
CCOC(=O)N1CCN(c2cc(N3CCN(CC)CC3)c(F)cc2[N+](=O)[O-])CC1C (stereo unspecified) | 2.9
CCn1c(=O)cc(SCC(=O)Nc2cccnc2)c2ccccc21 | i
OC1CCN(c2c3c(nc4cc(-c5cccc(F)c5)nn24)CCCC3)CC1 | 1.1
COc1ccc(CC(=O)Nc2cccc(-c3nnc(-c4ccco4)o3)c2)cc1 | i

Looked up above.
Under H5N1 CPE, CCOC(=O)N1CCN(c2cc(N3CCN(CC)CC3)c(F)cc2[N+](=O)[O-])CC1C (stereo unspecified) reads 2.9
Under H5N1 CPE, COCCCNC(=O)C1CCCN(C(=O)Nc2ccc(OC)cc2)C1 (stereo unspecified) reads 0.7

The results go on.
SMILES | H5N1 CPE
FC(F)(F)c1cc(-c2ccccc2)nc(NCC2CCCO2)n1 (stereo unspecified) | i
CCOc1cccc(C2NCc3ccccc3-n3cccc32)c1O (stereo unspecified) | i
NC(=O)/C(=N\OC(=O)c1ccco1)c1nc(-c2ccc(Br)cc2)cs1 | 0.2
C=CCNC(=O)C1CCN(S(=O)(=O)c2ccc(Br)cc2)CC1 | 1.9
Cc1ccc(C(=O)OCC(=O)Nc2ncc(Cl)cc2Cl)cc1NC(=O)c1ccco1 | 1.1
COc1ccccc1N1CCN(C(c2ccccn2)c2nnnn2C2CCCCC2)CC1 (stereo unspecified) | 2.3
Cn1cc(Cl)c(C(=O)NC2CCCCCC2)n1 | 1.2
Cc1cc(C)c2nc(SCCC#N)nc(C)c2c1 | 0.6
Cc1ccc2cc(C(c3nnnn3C3CCCC3)N3CCN(c4ccccc4)CC3)c(=O)[nH]c2c1 (stereo unspecified) | 1.8
Cc1nc2c(-c3ccc(F)cc3)c(C)nn2c(C)c1CCC(=O)NCc1ccco1 | 0.1
CCc1ccc(C(=O)N2CCCC2)s1 | i
CCN(CC)c1ccc2c(Cl)c(Br)c(=O)oc2c1 | 2.5
COc1ccc(CC(=O)Nc2c3c(nn2-c2cccc(C)c2C)CS(=O)(=O)C3)cc1 | i
C(#CCN1CCOCC1)COCCCOC(c1ccccc1)c1ccccc1 | i
O=C(CSCc1nc2ccccc2[nH]1)Nc1ccccc1 | i
CC(C)C(=O)Nc1cccc(NC(=O)CCN2C(=O)c3ccccc3S2(=O)=O)c1 | i
CCOc1ccc2nc(N/C(N)=N/C(=S)Nc3cccc(C)c3)nc(C)c2c1 | i
CCOC(=O)Cc1csc(NC(=O)CSc2nnnn2-c2ccc(CC)cc2)n1 | i
CC(O)c1nc2ccccc2n1C1CCCCC1 (stereo unspecified) | 0.3
CC1=CC(=O)N(c2cccc(C(F)(F)F)c2)C1c1ccc(Cl)cc1 (stereo unspecified) | i
Brc1ccc(Sc2cnc3ccccc3n2)cc1 | 4.5
C[C@@H](NC(=O)c1coc(=O)c(Br)c1)c1ccccc1 | i
CCCCOc1[nH]c2nc(-c3ccco3)n(Cc3ccco3)c(=N)c2c1C#N | i
CCc1ccc(OCCCN=C(C)c2c(O)n(C)c(=O)n(C)c2=O)cc1 | 2.4
O=C(Nc1ccc2c(c1)OCO2)N1CCN(c2cccc(C(F)(F)F)c2)CC1 | 0.1
COc1ccccc1C1C=C(c2ccc(Cl)cc2)Nc2nc(NS(C)(=O)=O)nn21 (stereo unspecified) | 0.5
CCC(Oc1ccccc1)C(=O)NCc1cccnc1 (stereo unspecified) | i
Cc1cccc(C2(c3cccc(C)c3)OC(=O)c3ccccc32)c1 | i
O=C(O)CC(NC(=S)NCc1ccccc1)C(=O)O (stereo unspecified) | i
CCOC(=O)c1ccc(NC(=O)NC2CCN(CC(=O)NCc3ccc4c(c3)OCO4)CC2)cc1 | i
Cc1ccnc2c(N3C(=O)C4C5c6ccccc6C(c6ccccc65)C4C3=O)cccc12 (stereo unspecified) | i
CCCOc1ccc(C2C(C#N)=C(N)Oc3nc[nH]c(=O)c32)cc1OC (stereo unspecified) | i
O=C(NCc1ccco1)C1CCN(Cc2ccc(F)cc2)CC1 | i
C=CCNC(=S)NNC(=O)c1ccc(OCC)cc1 | i
CCN(CC)S(=O)(=O)c1csc(C(=O)NC2CCCCC2)c1 | i
Cc1cccc(NC(=O)CN(C)S(=O)(=O)c2ccc(Cl)cc2)n1 | i
CCOc1ccc(S(=O)(=O)n2ccnc2)c2ccccc12 | 1.5
CCOC(=O)c1cnc(-n2nc(C)cc2C)nc1Nc1ccc(N(C)C)cc1 | 4.4
COc1cc(-c2nnc(SCC(=O)Nc3cc(C)on3)n2C)cc(OC)c1O | i
Cn1cnc2cc(NS(=O)(=O)c3ccc(Br)cc3)ccc21 | 2.8
O=C(CSc1nc(-c2ccccc2)cc(=O)[nH]1)Nc1ccccn1 | 1.0
Cc1ccc(SCc2cn3cccnc3n2)cc1 | 1.4
Cc1nc2cc(C(F)(F)F)ccc2n1C1CCN(Cc2nnnn2Cc2cccs2)CC1 | 7.5
CCCN(CCC)S(=O)(=O)c1ccc(C(=O)NCc2ccc3c(c2)OCO3)cc1 | i
CCc1nnc(NC(=O)CSc2nnc(C)n2CC2CCCO2)s1 (stereo unspecified) | 1.0
Cc1ccccc1N1CCN(Cc2cccc(C(=O)O)c2)CC1 | i
Cc1ccc(Oc2ccc(Cl)cc2NC(=O)c2cnccn2)cc1 | 1.4
COc1cccc(C(=O)c2c[nH]c(C(=O)NCc3ccco3)c2)c1 | 0.1
CCN(CC)C(=O)CN(c1cccc(C(F)(F)F)c1)S(C)(=O)=O | 0.8
O=S(=O)(NCC1CCCO1)c1cc(Cl)ccc1Cl (stereo unspecified) | i
N#Cc1cccc(NC(=O)Nc2cccs2)c1 | 7.9
Cc1ccc(C)c(NS(=O)(=O)c2cc(C(N)=O)ccc2C)c1 | 1.1
COc1cc2c(cc1OC)/C(=C/C#N)NC(C)(C)C2 | i
Cc1ccc(NC(=O)Cn2cccc2)cc1Cl | i
Cc1cc(N2CCN(C(=O)c3ccco3)CC2)n2ncc(-c3ccccc3)c2n1 | 0.9
O=C(CN(C(=O)CCC(=O)Nc1nccs1)c1ccc(F)cc1)NCC1CCCO1 (stereo unspecified) | 2.0
COCN(C#N)c1nc(OC)nc(OC)n1 | 0.1
CCCCC(CC)C(=O)Nc1ccc(Cl)cn1 (stereo unspecified) | 0.9
CCCc1cc(=O)oc2cc(OCC(=O)Nc3ccc4c(c3)OCCO4)ccc12 | i
O=C(Nc1ccccn1)c1cccc(S(=O)(=O)N2CCOCC2)c1 | 1.0

New compounds follow.
SMILES | H5N1 CPE
CCOC(=O)c1oc2c(O)c(O)ccc2c(=O)c1-c1nncn1-c1ccccc1 | 0.6
COC(=O)C1=C(C)N(C)C(=O)NC1c1cc(Cl)c(O)c(OC)c1 (stereo unspecified) | 1.7
CCOC(=O)C(Cc1c[nH]c2ccccc12)NC(=O)c1ccco1 (stereo unspecified) | i
CCN1CCN(c2oc(COc3ccc(-c4ccccc4)cc3)nc2C#N)CC1 | i
Cc1cc2c(cc1C)/C(=C\C(N)=O)NC(C)(C)C2 | i
COc1ccc(NC(=O)CSc2nc(N)c3cc4c(nc3n2)CCCC4)c(OC)c1 | i
CC(OC(=O)c1cc2sccc2n1C)C(=O)NCc1ccc(F)cc1 (stereo unspecified) | i
COc1ccc2nc(Nc3nc(CSc4nnnn4-c4ccccc4)cc(=O)[nH]3)nc(C)c2c1 | 2.1
CC(=O)N(C)c1ccc(NC(=S)Nc2ccccc2)cc1 | 1.0
O=C1CC(Sc2nnnn2-c2ccccc2)C(=O)N1c1cccc(Cl)c1 (stereo unspecified) | 2.5
O=C(c1ccc2c(c1)OCCO2)N1CCN(Cc2ccccc2)CC1 | 1.9
CN1CCN(CC(=O)Nc2ccc(Cl)cc2C(=O)c2ccccc2)CC1 | 1.1
Cc1cccc(-c2nc(C#N)c(N3CCCCCC3)o2)c1 | i
Cc1ccc(S(=O)(=O)N2CCC(O)(c3cccnc3)CC2)cc1 | i
CC(Cc1ccccc1)NC(=O)C1(c2ccccc2)CCOCC1 (stereo unspecified) | 0.1
O=C(Nc1ncnc2c1CCC2)C12CC3CC(CC(C3)C1)C2 | 1.5
CCCNS(=O)(=O)c1ccc(CCC(=O)N2CCN(c3ccc(OC)cc3)CC2)cc1 | 1.9
CC(C)(C)C1CCc2onc(C(=O)Nc3cnn(Cc4ccc(F)cc4)c3)c2C1 (stereo unspecified) | i
O=C(/C=C/c1ccc(-c2ccccc2[N+](=O)[O-])o1)c1ccc(F)cc1 | i
CC(=O)Nc1ccc(NS(=O)(=O)c2cn(C)c(=O)n(C)c2=O)cc1 | 1.9
NC(=O)CSc1nnc(C2CC2)n1Cc1ccccc1 | i
Cc1cc(C)n2c(SCc3ccc(C#N)cc3)nnc2n1 | 3.4
CCc1ccc(/C=N/NC(=O)c2cc(C3CC3)nc3ccccc23)s1 | i
COc1ccc(C2C(CC(=O)O)=C(O)C(=O)N2c2ccccc2)cc1 (stereo unspecified) | 1.1
CCOc1ccc(-c2cc(CCCC(=O)NCc3ccco3)no2)cc1 | i
COc1cccc(CNC(=O)Cn2nc(-c3ccc(Cl)cc3)ccc2=O)c1 | i

Looked up one by one from the list above:
SMILES | H5N1 CPE
CCOc1ccc(-c2cc(CCCC(=O)NCc3ccco3)no2)cc1 | i
COc1ccc(C2C(CC(=O)O)=C(O)C(=O)N2c2ccccc2)cc1 (stereo unspecified) | 1.1
O=C(/C=C/c1ccc(-c2ccccc2[N+](=O)[O-])o1)c1ccc(F)cc1 | i
CC(=O)Nc1ccc(NS(=O)(=O)c2cn(C)c(=O)n(C)c2=O)cc1 | 1.9
NC(=O)CSc1nnc(C2CC2)n1Cc1ccccc1 | i
Cc1cc(C)n2c(SCc3ccc(C#N)cc3)nnc2n1 | 3.4

The list is partial, so the mix of outcomes need not match the whole.
